# Bead autofluor: flagged as autofluorescent in microsphere protease counterscreen; fluorescence intensity (test concentration not listed); compound autofluorescence counterscreen, microsphere flow cytometry; hits give high values; 360,000 tested, 3.1% active;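 active = at least 3 SD above the mean of all compounds, about 16000 in these data; inconclusive = too few beads counted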;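 note: 100 nL of 1 mM stock went into each well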
# Mtb hypoxia rep: PubChem AID 1159583; M. tuberculosis hypoxia-regulated fluorescent reporter, fluorescence; fluorescence inhibition, % (no concentration beside the values); 300,000 tested, 0.1% active;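 active = 35 to 45% if threefold the growth effect, above 45% if 1.5-fold the growth effect; inactive = the rest, general growth blockers included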;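 note: wells of about 50 µL received 100 nL stock; 0% = vehicle wells and 100% = reference inhibitor wells; whole bacteria with a GFP reporter of the hypoxia response; strong numbers were not always called active; many hits fall short of the cut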
# Sa RN4220 lethal: growth inhibition of S. aureus RN4220, primary screen, OD600. 16 h. inhibition, % (test concentration not listed). 330,000 tested, 0.33% active;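 active = z-score of -3 or lower and OD600 up to 0.18 on both plates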;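 note: plate controls were untreated cells for no effect and reference antibiotic for full effect; stock transfer was 100 nL into about 80 µL; one replicate is shown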
# BJeLR lethal: MLPCN primary cell-based screen for lethality selective to Ras in HRASV12 cells; 300,000 tested, 0.17% active; inhibition, % (concentration not given with the values); BJeLR (HRASV12) viability, CellTiter-Glo ATP luminescence, 48 h; reference of the scale not given here; AID 1554, 2009;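 active = replicate mean above 50%; inconclusive = above 50% but judged a plate artefact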;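 note: 50 nL library stock added to about 25 µL; numbers are from one replicate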
# ugtP null kill: growth inhibition of ugtP-null S. aureus, primary screen, RN4220 ugtP deletion, OD600; 16 h; some inactives read as strong as hits; growth inhibition, % (no concentration beside the values); 330,000 tested, 0.54% active;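 active = z-score under -3 and OD600 up to 0.15 on both plates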;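 note: plate controls were untreated wells for no effect and antibiotic for full effect; wells of about 80 µL received 100 nL stock; the first replicate is given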
# PrP UTR inh: inhibition of PrP 5' UTR reporter expression | AID 488862, 2010 | cell-based PrP 5' UTR mRNA reporter, plate reader | inhibition, % (concentration not given with the values) | 340,000 tested, 0.35% active;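 active = every replicate at 50% or more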;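 note: 0 = median of the neutral control wells; tested in H4 reporter cells; numbers are from one replicate; inactives centre near -14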
# Mtb hypoxia rep growth: also measured in Mtb hypoxia rep; calls as there; growth inhibition, %; measured here: M. tuberculosis growth (absorbance);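 0% = vehicle and 100% = reference antibiotic; read after six days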
# Numbers without * were called inactive; ? = inconclusive; . = no result given. Rows are unselected (roughly 4% active in at least one column).
compound	Sa RN4220 lethal	Bead autofluor	ugtP null kill	BJeLR lethal	PrP UTR inh	Mtb hypoxia rep	Mtb hypoxia rep growth
COc1ccc(CNC(=O)CCCn2nc(C)c3c(C)n(-c4ccc(C)cc4)nc3c2=O)cc1OC	5.4	6036	10	5	-17	-1	2
CCCn1c(N)c(N(CCOC)C(=O)c2ccc(N3CCCC3=O)cc2)c(=O)[nH]c1=O	2.1	4877	7	-2	-21	10	2
CC1(c2ccc3ccccc3c2)NC(=O)N(CC(=O)N2CCN(Cc3ccc(C#N)cc3)CC2)C1=O (configuration not stated)	6.6	.	8	.	-17	-5	-3
O=c1[nH]c(CSc2ccccn2)nc2c1oc1ccccc12	9.3	3903	-1	8	22	1	8
Cc1cccc(NC(=O)C2(C)CC3c4ccccc4C2c2ccccc23)c1C (configuration not stated)	3.0	2608	5	1	-29	5	7
Cc1ccc(S(=O)(=O)N2CCN(C(=O)Cc3c(F)cccc3Cl)CC2)cc1	1.1	5856	3	18	-4	10	-8
CCOc1ccc(C(C)NC(=S)NCc2ccc(Cl)cc2)cc1 (configuration not stated)	-3.5	4494	-17	1	-12	18	13
Cc1cc(C)c(NC(=O)/C(C#N)=C/c2ccc(OCc3ccc(F)cc3)cc2)c(C)c1	-6.4	9229	-7	9	-25	-11	-3
S=C(c1c[nH]c2ccccc12)N1CCOCC1	7.0	4076	3	-12	4	9	4
O=C(Cc1ccc(Br)cc1)NCCc1ccc(Cl)cc1Cl	3.5	2109	2	0	-4	8	14
c1ccc(C[C@H]2CNCCN2CCc2cccc3ccccc23)cc1	.	3247	.	9	-16	.	.
O=C1CN(C(=O)COc2ccc(Br)cc2)c2ccccc2N1	7.3	5969	9	2	-43	9	2
O=C(COc1ccccc1)N1CCN(c2ncccn2)CC1	6.5	4681	8	5	-22	17	9
O=C(N/N=C/C=N/NC(=O)c1ccco1)c1ccco1	.	4774	.	-7	-27	.	.
C/C(CC1CC(C)OC1=O)=N\NC(N)=S (configuration not stated)	.	2547	.	-3	-30	.	.
Cc1ccc(C)c(CN2CCC(n3nccc3NC(=O)CCCc3ccccc3)CC2)c1	-2.1	5493	0	0	-22	-1	-2
CCc1c(C2(O)CCCCC2)[nH]c2ccc(C(F)(F)F)cc12	.	3516	.	11	-28	.	.
O=C(O)C1(c2ccccc2)CCN(S(=O)(=O)c2cccs2)CC1	0.9	4213	1	-3	-11	6	-3
CCN=C1SC(C(=O)Nc2ccccc2)CC(=O)N1CC (configuration not stated)	8.1	8158	-1	13	-26	14	5
CN(C)CCNC(=O)/C(=N\O)c1ccccn1	.	2069	.	-3	-12	.	.
O=C(Nc1ccccc1C(F)(F)F)N1CCC(N2CCCCC2)CC1	1.7	3231	-7	-10	6	7	9
NC(=O)c1ccsc1NC(=O)c1ccc([N+](=O)[O-])o1	100*	.	100*	.	-11	.	.
CN(CC(=O)Nc1ccc(SC(F)F)cc1)C1CCCCC1	2.3	4273	26	1	-17	22	13
COc1ccc(CC(=O)NNC(=S)NCC2CC2)cc1OC	2.0	4587	9	4	-9	13	20
CC(C)OCCCN1CN(S(=O)(=O)c2ccc(Cl)cc2)c2nc3ccccc3nc21	20	2535	17	-3	-25	-1	-1

# 3 structures already listed, sorted by SMILES length, smallest number first:
compound	Sa RN4220 lethal	Bead autofluor	ugtP null kill	BJeLR lethal	PrP UTR inh	Mtb hypoxia rep	Mtb hypoxia rep growth
C/C(CC1CC(C)OC1=O)=N\NC(N)=S (configuration not stated)	.	2547	.	-3	-30	.	.
CCN=C1SC(C(=O)Nc2ccccc2)CC(=O)N1CC (configuration not stated)	8.1	8158	-1	13	-26	14	5
O=C(N/N=C/C=N/NC(=O)c1ccco1)c1ccco1	.	4774	.	-7	-27	.	.

# The list goes on.
compound	Sa RN4220 lethal	Bead autofluor	ugtP null kill	BJeLR lethal	PrP UTR inh	Mtb hypoxia rep	Mtb hypoxia rep growth
CCCOc1ccc(/C=N/NC(=O)c2c(-c3ccccc3)noc2C)cc1OC	.	5821	.	-2	7	.	.
COC(=O)C[N+](C)(C)CC#Cc1ccccc1	5.8	2607	10	-17	-2	9	9
COc1cccc2cc(C(=O)C3=C(O)C(=O)N(CCN4CCOCC4)C3c3ccc(C(C)(C)C)cc3)oc12 (configuration not stated)	13	5456	9	-10	11	-5	-4
CC(CCN1CCN(c2ccccc2)CC1)c1ccccc1 (configuration not stated)	0.6	3275	1	0	-9	-7	-16
CCCn1c(SCC(=O)N(CC)c2c(N)n(Cc3ccccc3)c(=O)[nH]c2=O)nnc1-c1ccncc1	1.8	6256	5	.	3	-3	-2
COc1ccc(/C=C/C(=O)OCC(=O)N2CCc3ccccc32)cc1	3.5	9464	1	.	-12	-2	1
CCN(CC)S(=O)(=O)c1cccc(NC(=O)c2ccc(Sc3nncn3C)c([N+](=O)[O-])c2)c1	3.1	4614	14	-3	-7	3	6
COc1ccc(Nc2nc(N/N=C/c3ccc(N(C)C)cc3)nc(C)c2[N+](=O)[O-])cc1	.	1821	.	5	1	.	.
N=c1c2c3c(sc2ncn1CCCO)CCCC3	2.6	2408	-4	2	-23	.	.
CCc1noc(C)c1C(=O)N1CC(C)OC(C)C1 (configuration not stated)	-4.1	.	-9	0	-8	8	10
O=C(Nc1cccc(S(=O)(=O)NC2=NCCC2)c1)c1ccc(F)cc1	-1.4	5391	-3	.	-7	-2	4
CC1CCCCN1CCCNC(=O)CN1C(=O)CSc2ccc(S(=O)(=O)N3CCOCC3)cc21 (configuration not stated)	1.5	5511	4	12	-14	4	-15
CNc1ccccc1C(C)(C)c1cc(-c2ccc(F)cc2)no1	-4.4	2056	9	2	-23	14	9
CCc1cc(=O)oc2cc(C)cc(OC(C)C(=O)NCC(O)c3ccccc3)c12 (configuration not stated)	0.0	5016	6	-2	-61	5	3
COc1ccc(/C=C2/C(=O)ON=C2C)cc1Cl	-1.2	3859	12	-11	-17	-1	6
CN(CC(=O)Nc1cccc(F)c1)C(=O)c1ccc2c(c1)CC(c1ccccc1)OC2=O (configuration not stated)	2.4	5015	5	.	-17	9	-2
CC(OC(=O)c1cnccn1)C(=O)Nc1nc(-c2cccc([N+](=O)[O-])c2)cs1 (configuration not stated)	1.1	?	0	.	-12	0	6
COc1ccc(NS(=O)(=O)c2cccc(Cl)c2)cc1S(=O)(=O)N1CCCCC1	13	10511	-6	-12	-27	8	0
COc1ccc(C(=O)Nc2cc(Cl)ccc2C(=O)O)cc1	37	3630	23	-3	-18	14	9
Cn1cnc(S(=O)(=O)N2CCN(c3ccccc3)CC2)c1	-2.0	5284	1	-2	-1	-17	-2
CC(=O)Nc1nc2ccccc2n1CCN1CCOCC1	2.2	15949	2	-5	-1	-1	0
CC(=O)c1ccc2c(c1)C1C(Cl)C(Sc3ccccc3[N+](=O)[O-])CC1C(C(=O)O)N2 (configuration not stated)	13	2046	-21	.	-12	2	-12
Cc1cccc(C2c3[nH]c4ccccc4c3CCN2C(=O)c2ccc(=O)[nH]c2)n1 (configuration not stated)	-3.0	3202	2	2	-22	15	9
COc1cccc(C(=O)Nc2nnc(-c3ccccc3)s2)c1	2.2	3164	-13	0	-38	0	6
Cn1c(CCNC(=O)c2ccccc2Cl)n[nH]c1=S	6.7	3758	2	-4	-18	8	0
Cc1c(O)c2ccccc2n(-c2ccccc2)c1=O	1.2	4178	3	10	-12	-4	12
O=C(NCCN1C(=O)S/C(=C\c2ccc(OC(F)F)cc2)C1=O)[C@@H]1CCCN1C(=O)c1cccs1	6.9	2417	-7	-12	-6	3	14
C=CCn1c(CNC(=O)c2ccccc2C)nnc1SCC(=O)NC1CCCC1	4.5	4034	6	-1	-4	9	9
CCOC(=O)Cn1nnnc1C(CC)N(Cc1cccs1)Cc1cc2ccc(OC)cc2[nH]c1=O (configuration not stated)	8.8	2845	7	6	-3	-2	-2
COc1cccc(-c2cn(-c3cccc(C(F)(F)F)c3)c(=S)[nH]2)c1	3.3	3859	14	-1	-35	-10	5
O=C(Cn1cc2c(n1)CCCC2)NCCCN1CCN(c2ccccc2F)CC1	1.2	9261	10	2	-19	.	.
O=C(NN=Cc1cccc2ccccc12)c1cccnc1	-4.2	.	-2	.	.	4	2
CC(=O)c1csc(CS(=O)(=O)c2ccccn2)n1	2.6	3862	1	1	-27	-2	0
O=C(CCSc1ccccc1)NC1CCCC1	2.5	3175	12	5	-15	0	-1
CC(=O)C1C(c2ccc(F)c(F)c2)NC(=O)NC1(O)C(F)(F)F (configuration not stated)	-1.2	14606	1	-9	-2	-2	-15
COc1cccc(CNC(=O)C2CCN(c3ncnc4c3nc3n4CCCCC3)CC2)c1	12	4653	3	-6	14	-5	-8
CN1C(=O)/C(=C/c2ccc(OCc3cccc(F)c3)cc2)NC1=S	3.4	3701	7	-6	-10	6	1
Cc1nn(CCCC(=O)NCc2ccc(F)cc2)c(=O)c2nccn12	-6.9	6806	1	-15	-1	7	14
CCS(=O)(=O)N1CCN(S(=O)(=O)c2ccccc2)CC1	5.2	6855	3	-1	0	5	11
O=c1[nH]c(C2CCCN(S(=O)(=O)c3ccccc3)C2)nc2c1nnn2Cc1cccc(Cl)c1 (configuration not stated)	7.2	3891	-15	-1	-3	-13	2
Cc1cc(OC(C)C(=O)N(Cc2cccs2)C2CCS(=O)(=O)C2)ccc1Cl (configuration not stated)	2.3	5705	-6	-1	7	6	7
O=C(CCCc1nc(-c2ccc(Cl)cc2)no1)Nc1cccnc1	6.0	10443	-2	6	-2	3	3
CC1C(=O)N(Cc2ccccc2)c2ccccc2N1C(=O)c1ccccc1 (configuration not stated)	-1.5	3430	-8	22	3	-6	4
O=C(Cn1ccsc1=NC(=O)c1ccco1)c1ccccc1	5.3	3875	2	10	6	-2	13
O=C(CC(Nc1ccccc1Cl)C(=O)O)c1ccccc1 (configuration not stated)	5.8	4247	6	7	0	8	1
CN(CC(O)COc1ccc(S(=O)(=O)N2CCOCC2)cc1)C1CCCCC1 (configuration not stated)	-0.1	?	-3	-5	-9	5	-4
Cc1ccc(NC(=O)C2CC(=O)N(CCc3ccccc3)C2)c(C)c1 (configuration not stated)	4.0	4052	12	-10	-22	12	9
Nc1ncc(-n2cncn2)c(-c2ccc(Cl)cc2)n1	3.2	2055	-4	5	-12	3	10
COc1ccc(S(=O)(=O)N2CCOC23CCN(S(=O)(=O)c2ccc(F)cc2)CC3)cc1	1.4	5838	9	2	-10	0	3
COc1ccccc1Nc1nc(C)cc(C)c1C(N)=O	3.1	4048	3	1	-7	10	-1

# Next part
compound	Sa RN4220 lethal	Bead autofluor	ugtP null kill	BJeLR lethal	PrP UTR inh	Mtb hypoxia rep	Mtb hypoxia rep growth
O=C(O)CC1SC(NN=Cc2ccc(Br)cc2)NC1=O (configuration not stated)	1.4	.	1	.	.	2	12
COc1ccc(NC(=O)CC2SC(=Nc3ccccc3)NC2=O)c(OC)c1 (configuration not stated)	3.5	4245	1	3	16	.	.
N#C/C(=C\c1ccccc1[N+](=O)[O-])C(=O)NCc1ccccc1	0.2	4673	-3	2	-12	5	4
COc1ccc(NCc2cc3ccccc3[nH]c2=O)cc1	1.6	3161	2	8	-22	9	10
N#CCCN(C(=O)COc1ccc(C#N)cc1)c1ccc(F)cc1	17	4954	-68	-23	-1	10	12
COC(=O)C1=C(C(=O)OC)[C@@H]2Nc3ccccc3[C@@]23C[C@@H](C(=O)OC)N(C(=O)COCc2ccccc2)C3=N1	.	3792	.	2	-26	.	.
CC(C(=O)NC(c1ccccc1)c1ccccc1)N1CCOCC1 (configuration not stated)	1.2	5967	8	0	-16	-1	13
COc1ccc(NC(=O)/C(Cl)=C(/Cl)S(=O)Cc2ccc(C)cc2)cn1 (configuration not stated)	93*	2663	99*	7	49	.	.

# Whole records as entered above. Order of values: Sa RN4220 lethal, Bead autofluor, ugtP null kill, BJeLR lethal, PrP UTR inh, Mtb hypoxia rep, Mtb hypoxia rep growth
# N#CCCN(C(=O)COc1ccc(C#N)cc1)c1ccc(F)cc1 is listed as 17, 4954, -68, -23, -1, 10, 12
# COc1ccc(NC(=O)/C(Cl)=C(/Cl)S(=O)Cc2ccc(C)cc2)cn1 (configuration not stated) is listed as 93*, 2663, 99*, 7, 49, ., .

# Compound activity (PubChem)
